Choline anaer gr – choline-fed anaerobic bacterial growth inhibition; Gram-negative bacterium anaerobic choline minimal medium, absorbance growth; stronger effect = lower value; many inactives read as strong as hits in the columns shown; 0.2% of 55,000 active; calls only;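 active = growth z-score on choline under -2 at 7 or 20 h with little or no fall on glycerol, limits in tiers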;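 note: stock transfer was 300 nL into about 50 µL; the organism is E. coli; final concentration not given here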
Choline anaer gr early – also measured in Choline anaer gr; calls as there; z-score; measured here: choline growth z-score, timepoint 1;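 score of optical density at 7 h as mean of two plates; lower means less growth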
Active calls of the source: *; i = inactive; + = active, no number; & = joins results of further samples; ! = a repeat was not active. An excerpt; rates above refer to the full screens.

Order of values: Choline anaer gr early | Choline anaer gr
- O=C(Nc1ccc2c(c1)OCCO2)c1ccc(Nc2ccnc(-c3cccc(F)c3)n2)cc1
    -0.61 | i
- CCc1ccc(-n2nnc3c(=O)n(Cc4nc(-c5ccccc5Cl)no4)cnc32)cc1
    0.15 | i
- C=CCn1c(=O)oc2ccc(C(=O)NC3CCN(Cc4ccccc4)CC3)cc21
    0.09 | i
- COc1cc(OC)cc(C(=O)Nc2c(C)nc3sccn3c2=O)c1
    0.8 | i
- Cc1ccc(F)cc1Nc1ncnc2c1cnn2C
    0.03 | i
- Cc1ccc(-c2noc(-c3ccc(=O)n(CC(=O)Nc4ccc(Br)cc4)c3)n2)cc1
    -1.4 | i
- CCCn1nnnc1NCc1ccc(-c2ccc(Br)cc2)o1
    0.83 | i
- O=S(=O)(Nc1ccc(Cn2cnc(-c3nc(-c4ccc(F)cc4)no3)c2)cc1)c1ccc(F)cc1
    -1.1 | i
- COc1cc2ncc(C#N)c(Nc3ccc4c(c3)OCCO4)c2cc1OC
    -1.1 | i
- O=C(NCCc1ccccc1)c1ccc2c(c1)N(Cc1ccccc1)C(=O)CS2=O (stereo not given)
    1.6 | i
- Cc1ccc(Nc2c(C(=O)N3CCCCC3)cnc3ccccc23)cc1
    -0.17 | i
- Cc1cccc(NC(=O)Cn2ncc3c(=O)oc4ccccc4c32)n1
    -1.3 | i
- COc1ccc(N2CCN(CCCNC(=O)c3cc(=O)n4c(nc5ccccc54)s3)CC2)cc1
    -0.22 | i
- O=C(Cn1c(=O)sc2cc(S(=O)(=O)NCC3CCCO3)ccc21)N1CCOCC1 (stereo not given)
    -0.35 | i
- COc1cc(Nc2nc(-c3nnn(-c4ccc(F)cc4)c3C)ns2)cc(OC)c1
    -0.52 | i
- COc1ccc(N2CCN(S(=O)(=O)c3cc(-c4nc(C)cs4)cs3)CC2)cc1
    0.94 | i
- Cc1nn(-c2nc3ccccc3[nH]2)c2c1C(c1ccncc1)CC(=O)N2 (stereo not given)
    -0.19 | i
- CCC(C)NC(=O)c1ccc(NC(=O)c2nnc(COc3ccc(Cl)cc3)s2)cc1 (stereo not given)
    1.2 | i
- CCOCCCNC(=O)N1CCCC1c1cc(C)no1 (stereo not given)
    -0.81 | i
- CCCn1c(=O)c(-c2ccc(C(=O)Nc3cccc(C(=O)OC)c3)cc2)nc2ccccc21
    0.37 | i
- Cn1cc(C(=O)Nc2ccccc2Cl)c2[nH]c(=O)n(-c3ccc(Cl)cc3)c(=O)c21
    -0.94 | i
- O=C(Cn1ccn2nc(-c3ccc(Cl)cc3)cc2c1=O)Nc1cccc(Br)c1
    0.16 | i
- COC(=O)c1c(-c2ccc(F)cc2)noc1N1CCCCC1
    -1.5 | i
- CCCCCn1c(C2CCCO2)nc2ccccc21 (stereo not given)
    -0.35 | i
- COc1ccc2cc3c(N)nn(C(=O)c4ccc(OC)c(OC)c4)c3nc2c1
    0.41 | i
- Cc1c(Cl)cccc1NC(=O)CCn1c(C(F)(F)F)nc2cc(S(=O)(=O)N(C)C)ccc21
    -0.48 | i
- Cc1cc(-c2c(C)sc(C)c2S(=O)(=O)NC2CCC(C)CC2)n[nH]1 (stereo not given)
    0.83 | i
- Cc1ccc(O)c(NC(=O)c2cc(-c3ccc(F)cc3)on2)c1
    -0.55 | i
- O=C(Nc1ccccc1F)c1ccnc(N2CCC(C(=O)O)CC2)c1
    0.85 | i
- CCOC(=O)c1c(C)oc2ncnc(N(C)CCCN(CC)CC)c12
    -1.6 | i
- O=C(CN1C(=O)CC(c2ccc(Cl)cc2)=Nc2cccnc21)Nc1ccc2c(c1)OCCO2
    1.1 | i
- CCSc1nnc(-c2nn(C)c3c2CN(S(=O)(=O)CC)CC3)n1CC
    -1.2 | i
- O=C(NCc1cccn1Cc1ccccc1)NCC1CCCO1 (stereo not given)
    0.47 | i
- CSc1nc2nc3c(c(=O)n2[nH]1)CCCC3
    -0.23 | i
- CCn1nc(C)c(CCN(C)S(=O)(=O)c2cccs2)c1C
    -1.3 | i
- Cc1ccccc1NC(=O)Nc1nnc(CC(=O)NCc2ccccc2)s1
    0.12 | i
- CN(C)c1ccc(NC(=O)c2nc(-c3ccccc3)n(-c3cccc(Cl)c3)n2)cc1
    -1.6 | i
- COC(=O)c1ccccc1NC(=O)c1ccc(-n2nc(OCc3ccc(OC)cc3)ccc2=O)cc1
    -0.7 | i
- Cc1ccc(-c2nc(C)cc(SCC(=O)Nc3ccccc3Br)n2)cc1
    -0.03 | i
- Cn1c(=O)[nH]c2cc(-c3noc(-c4cccc(Cl)c4)n3)ccc21
    0.05 | i

Arranged by the number under Choline anaer gr early (largest number first): 6 from the list above.
| mol | Choline anaer gr early |
| --- | --- |
| O=C(Nc1ccccc1F)c1ccnc(N2CCC(C(=O)O)CC2)c1 | 0.85 |
| Cc1ccccc1NC(=O)Nc1nnc(CC(=O)NCc2ccccc2)s1 | 0.12 |
| Cc1c(Cl)cccc1NC(=O)CCn1c(C(F)(F)F)nc2cc(S(=O)(=O)N(C)C)ccc21 | -0.48 |
| Cc1ccc(O)c(NC(=O)c2cc(-c3ccc(F)cc3)on2)c1 | -0.55 |
| CCn1nc(C)c(CCN(C)S(=O)(=O)c2cccs2)c1C | -1.3 |
| CN(C)c1ccc(NC(=O)c2nc(-c3ccccc3)n(-c3cccc(Cl)c3)n2)cc1 | -1.6 |

(next part)
Order of values: Choline anaer gr early | Choline anaer gr
- O=C(CN1C(=O)C2CCCC2=Nc2ccccc21)Nc1cccc(Br)c1 (stereo not given)
    -0.84 | i
- CCC(C(=O)NCc1ccccc1Cl)N1C(=O)CCCc2ccccc21 (stereo not given)
    0.2 | i
- Cc1ccc(NC(=O)c2sc3ncnc(N4CCN(C)CC4)c3c2C)cc1F
    -1.3 | i
- Cc1nc(Nc2nc(-c3ccc(F)cc3)cc(=O)[nH]2)nc2ccccc12
    1 | i
- O=C1CC(c2ccccc2)CC2=C1C(c1cccc(O)c1)Nc1ccc(C(=O)c3ccccc3)cc1N2 (stereo not given)
    0.34 | i
- Cc1ccc(N(Cc2nc3nc(C)cc(=O)n3[nH]2)C(=O)C2CCCCC2)cc1
    0.13 | i
- Cc1cc(C)c(NC(=O)C(C)Oc2cc(C(F)(F)F)c3c(C)nn(C)c3n2)c(C)c1 (stereo not given)
    -0.11 | i
- CCCOC(=O)c1ccc(NC(=O)C2=Cc3cc(C)ccc3OC=C2)cc1
    0.36 | i
- COc1ccc(Oc2nc(N3CCCC3)c(Cl)c3c2N(CC2CCCO2)CCS3(=O)=O)cc1 (stereo not given)
    0.7 | i
- Cc1ccccc1Cc1c(C)nc2c(C(=O)NCc3cccnc3)cnn2c1C
    0.44 | i
- COc1cccc(-c2cc(N)n(S(=O)(=O)c3ccc(C)cc3)n2)c1
    0.53 | i
- Cc1csc(NC(=O)c2cn(-c3ccc(-c4noc(C5CC5)n4)cc3)nc2C)n1
    0.39 | i
- Cc1nn(CC(=O)NCc2cccnc2)c(=O)c2nn(-c3ccccc3)c(C)c12
    1.2 | i
- COc1cccc(Oc2ccnc(-c3cccc(C(=O)NCC4CCCO4)c3)n2)c1 (stereo not given)
    0.1 | i
- CCCC(=O)NCCc1csc(-c2ccccc2)n1
    -0.03 | i
- CCCCC[C@H](O)CC[C@H]1[C@H](O)CC(=O)[C@@H]1CCCCCCC(=O)O
    -2.9*! | +!
- CC(C)Cc1csc(-c2csc(S(=O)(=O)NCc3ccc(F)cc3F)c2)n1
    0.97 | i
- O=C1CC(c2nc3ccccc3[nH]2)CN1c1ccc(F)cc1 (stereo not given)
    -0.49 | i
- COc1cccc(C2CC(=O)Nc3cc4c(cc32)OCO4)c1 (stereo not given)
    1.5 | i
- Cc1nc(-c2cc(S(=O)(=O)N3CCCC(C(=O)N4CCN(c5ccccc5)CC4)C3)c(C)s2)no1 (stereo not given)
    -0.34 | i
- COc1ccc(NC(=O)c2nnc(C(=O)NCCCN3CCC(N4CCCCC4)CC3)s2)cc1
    -1.5 | i
- O=C(CSc1nc2[nH]ncc2c(=O)n1-c1ccccc1Cl)N1CCCC1
    -0.06 | i
- COc1cc(OC)c(NC(=O)N2CCCN(C(=O)c3nonc3N)CC2)cc1Cl
    -0.35 | i
- CC(C)(C)c1nnc(-c2ccc3c(c2)OCO3)o1
    -1.8 | i
- Cc1ccc(C2c3cccn3CCN2S(=O)(=O)c2ccc3c(c2)OCCO3)cc1 (stereo not given)
    1.3 | i
- Cc1cccc(NC(=O)N2CCN(c3cc(N(C)C)nc(C)n3)CC2)c1
    0.66 | i
- O=C(NCCN1CCCC1)c1nc(-c2ccc(S(=O)(=O)N3CCCCC3)cc2)no1
    -3.7 | i
- O=C(Cn1nc(C(=O)Nc2ccccc2)ccc1=O)Nc1ccccc1F
    -0.25 | i
- CC(=O)Nc1ccc(NC(=O)Cn2nc(C(=O)N3CCCCC3)c3ccccc32)cc1
    -1.8 | i
- O=C(NCC(=O)N1CCC(c2nc(-c3ccccc3)no2)CC1)c1ccccc1
    -0.45 | i
- CC1(C)C(=O)N(CC(=O)Nc2cccc(F)c2)c2ccc(S(=O)(=O)N3CCCC3)cc21
    -0.68 | i
- CC(=O)Nc1cccc(N2CCn3c(nc4ccccc43)C2)c1
    0.02 | i
- Cc1nn(-c2nc3ccccc3[nH]2)c2c1C(c1c(F)cccc1Cl)CC(=O)N2 (stereo not given)
    0.95 | i
- CCOc1ccc(-c2csc(Cc3nc(-c4cccc(C)c4)no3)n2)cc1
    1.9 | i
- COc1ccc(NC(=O)C2CCCCC2)cc1CN1CCn2c(nc3ccccc32)C1
    0.1 | i
- Cc1cc(=O)n2nc(N3CCCC3C(=O)NCc3ccc4c(c3)OCO4)sc2n1 (stereo not given)
    -1.1 | i
- O=C(NC1CC1)c1ccc(-c2nc(-c3ccc(F)cc3)no2)cc1
    0.45 | i
- O=C(CSc1nc2nc[nH]c2c(=O)[nH]1)N1CCCC1
    -0.1 | i
- CC(C)CC(=O)NCC1(N(C)C)CCCCC1
    0.3 | i
- COc1ccc2[nH]cc(CCNc3ccc(S(=O)(=O)c4ccccc4)nn3)c2c1
    0.39 | i

An excerpt of these results, comma-delimited:
smiles,Choline anaer gr early,Choline anaer gr
O=C(NC1CC1)c1ccc(-c2nc(-c3ccc(F)cc3)no2)cc1,0.45,i
CC(=O)Nc1cccc(N2CCn3c(nc4ccccc43)C2)c1,0.02,i

Additional compounds follow:
Order of values: Choline anaer gr early | Choline anaer gr
- CCOC(=O)CC1=CC(SC(CC)C(=O)N2CCc3ccccc32)=Nc2ccccc2N1 (stereo not given)
    0.51 | i
- O=S(=O)(Nc1ccccc1-c1ccc2ccccc2n1)c1ccccc1
    -0.01 | i
- O=C(NCCc1ccc(Cl)cc1)C(Cc1ccccc1)NS(=O)(=O)c1cccc2cccnc12 (stereo not given)
    1.3 | i
- CCCc1nn2c(=O)cc(CN(CCC)Cc3ccc(C)cc3)nc2s1
    0.34 | i
- O=C(Nc1nccs1)C1CCN(c2nc(-c3ccc(Cl)cc3)no2)CC1
    0.84 | i
- CCSc1nnc2n(Cc3ccc(CC)cc3)c(=O)c3sccc3n12
    -1.1 | i
- COc1ccc(-c2cc(C)nc3c(-c4ccc(OC)c(OC)c4)c(C)nn23)cc1
    0.36 | i
- Cc1ccccc1C1C2=C(CC(c3ccccc3O)CC2=O)Nc2onc(C)c21 (stereo not given)
    -0.08 | i
- Cc1ccc(-c2cc(N3CCN(C(=O)NC(C)C)CC3)ncn2)cc1
    0.89 | i
- Cc1nn(CC(=O)NC(C)(C)C)c(C)c1S(=O)(=O)N1CCCC(C(=O)N2CCc3ccccc3C2)C1 (stereo not given)
    -0.73 | i
- CN(CC(=O)N1CCN(c2ccccn2)CC1)c1nn2c(NC(C)(C)C)c(-c3ccccc3)nc2s1
    -0.9 | i
- COc1ccc(CCCOC(Cn2ccnc2)c2ccc(OC)cc2)cc1 (stereo not given)
    -0.23&0.85 | i
- CCCCC(=O)Nc1ccc2nc(NC(C)=O)sc2c1
    0.43 | i
- Cc1nc2ncnn2c(NC2CCCC2)c1C
    0.1 | i
- Cc1nnc(-c2csc(S(=O)(=O)N3CCCCC3)c2)o1
    0.27 | i
- Cc1csc(NC(=O)c2cc(-c3cccnc3)n(-c3ccc(F)cc3)n2)n1
    -0.69 | i
- CCC(C)c1ccc(NC(=NCc2ccncc2)NC(=O)c2ccc(NC(C)=O)cc2)cc1 (stereo not given)
    0.27 | i
- O=C(c1nnc(-c2cc(S(=O)(=O)NC3CCCC3)c[nH]2)o1)N1CCCC1
    -0.34 | i
- Cc1nc(-c2ccc(N3CCN(C(=O)C4CC(=O)N(c5ccc(C)c(C)c5)C4)CC3)cc2)no1 (stereo not given)
    -0.75 | i
- CN(CCc1noc(COc2ccccc2F)n1)S(=O)(=O)c1ccc(F)cc1F
    -0.11 | i
- CCCSc1nc2c(c(=O)[nH]1)C(c1ccc(C(=O)OC)cc1)C(C(=O)OC)=C(C)N2 (stereo not given)
    0.89 | i
- O=C(CCc1ccccc1)N1CCc2c([nH]c3ccccc23)C1c1ccccc1 (stereo not given)
    1.1 | i
- c1ccc(CN2CCC3(CCc4ccccc43)CC2)cc1
    -0.59 | i
- Cc1nc2nc3c(c(Nc4ccc(Br)c(C)c4)n2n1)CCC3
    1.4 | i
- COc1cc(Nc2cc(-n3nc(C)cc3C)ncn2)cc(OC)c1
    0.9 | i
- CCOC(=O)c1ccccc1NC(=O)Cn1c(=O)c(CCC(=O)NC2CCCC2)nc2ccccc21
    0.57 | i
- CCOC(=O)c1ccc(Nc2ncnc3ccc(Br)cc23)cc1
    0.13 | i
- Cc1ccc(NC(=O)CSc2cn(CC(=O)N3CCC(C)CC3)c3ccccc23)cc1
    0.38 | i
- CCc1ccc(-c2[nH]ncc2CN2CCCC2c2cc(C)on2)cc1 (stereo not given)
    -0.5 | i
- O=S(=O)(Cc1ccccc1Cl)NCCc1n[nH]c(Cc2ccccc2)n1
    -0.53 | i
- CCN1CCN(CCCNC(=O)CC2CCN(S(=O)(=O)c3cccs3)CC2)CC1
    1.1 | i

One compound at a time, as listed above. Order of screens: Choline anaer gr early	Choline anaer gr
`Cc1ccc(F)cc1Nc1ncnc2c1cnn2C` as listed: 0.03	i
`CCOC(=O)c1c(C)oc2ncnc(N(C)CCCN(CC)CC)c12` as listed: -1.6	i

Screening data from PubChem BioAssay.
